# GoLoco inh red: inhibitors of human Gai1-RGS12 GoLoco interaction (red fluorophore) | P63096 | Gai1:RGS12 GoLoco peptide FP, rhodamine, 10 min | Potency, µM (series often up to 61.6 µM), for the others: top-dose activity, negative = inhibition, actives largely listed as inhibitors | 230,000 tested, 0.44% active | AID 880; active = well fitted inhibition curve with a large enough effect, not every such curve was filed as active; inactive = no such curve, though single readings can be large or run the other way; note: % is set by controls: 0 for no effect and ±100 for the full control effect; nearly all actives have a fitted effect of over 30% in size; many of its hits are not listed in these tables
# Target sequence (P63096 whole entry, looked up): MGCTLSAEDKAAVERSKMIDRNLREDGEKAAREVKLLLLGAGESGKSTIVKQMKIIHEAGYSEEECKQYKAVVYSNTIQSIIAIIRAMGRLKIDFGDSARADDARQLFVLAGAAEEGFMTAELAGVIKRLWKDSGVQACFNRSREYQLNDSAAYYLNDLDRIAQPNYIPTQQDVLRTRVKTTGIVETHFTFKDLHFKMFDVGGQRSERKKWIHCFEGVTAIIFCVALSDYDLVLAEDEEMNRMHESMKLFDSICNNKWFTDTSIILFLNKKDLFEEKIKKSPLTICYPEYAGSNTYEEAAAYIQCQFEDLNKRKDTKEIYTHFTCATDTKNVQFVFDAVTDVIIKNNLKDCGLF
# IMPase Li cell: cell-permeable IMPase inhibitors with lithium potentiation | Potency, µM (doses to about 59.4 µM), inactives show top-dose activity, negative = IMPase inhibition, actives largely listed as inhibitors | 210,000 tested, 0.35% active | CHO-M1 cells, IP1 TR-FRET (IP-One), carbachol + lithium;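 note: IP1 builds up when IMPase is blocked and the TR-FRET signal falls; plate controls were basal vehicle for no effect and high inhibitor control for full effect; nearly all actives have a fitted effect of over 50% in size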
#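 Lithium-sensitised IP1 accumulation assay; M1-expressing CHO cells treated 30 min at 37C with compound. Competitive antibody detection by time-resolved FRET followed a 10 min room-temperature lysis step.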
# Epigenetic derep: epigenetic control regulation, reporter derepression. murine LDR cells, GFP reporter derepression, 30 h. Potency, µM (highest dose often 53.9 µM), for inactives: top-dose GFP activation, hits mostly activators. 280,000 tested, 0.2% active. AID 1865; note: % of control where 0% means no effect; nearly all actives have a fitted effect of over 60% in size
#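 Murine LDR cells bearing a silenced CMV-driven GFP reporter were exposed to compound for 30 h at 37 C. After PBS washes, GFP-positive cells (20-120 um objects) counted by laser-scanning microplate cytometry.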
# JMJD2E inh: blocks human JMJD2E demethylase activity. 230,000 tested, 1.6% active. B2RXH2. Potency, µM (top dose mostly 57.1 µM), for inactives: at the highest dose activity change, negative = inhibition, most hits filed as inhibitors. JMJD2E catalytic domain, FDH-coupled NADH fluorescence (FDH is formaldehyde dehydrogenase); active = well fitted inhibition curve with a large enough effect, not every such curve was filed as active; inconclusive = small, poorly fitted or top-dose-only effect, or another doubt; inactive = no such curve, though single readings can be large or run the other way;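 note: 0% = wells with enzyme and -100% = buffer wells without enzyme; nearly all actives have a fitted effect of over 50% in size; many of its hits are not listed in these tables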
# Target sequence (B2RXH2 1-337 limits assumed): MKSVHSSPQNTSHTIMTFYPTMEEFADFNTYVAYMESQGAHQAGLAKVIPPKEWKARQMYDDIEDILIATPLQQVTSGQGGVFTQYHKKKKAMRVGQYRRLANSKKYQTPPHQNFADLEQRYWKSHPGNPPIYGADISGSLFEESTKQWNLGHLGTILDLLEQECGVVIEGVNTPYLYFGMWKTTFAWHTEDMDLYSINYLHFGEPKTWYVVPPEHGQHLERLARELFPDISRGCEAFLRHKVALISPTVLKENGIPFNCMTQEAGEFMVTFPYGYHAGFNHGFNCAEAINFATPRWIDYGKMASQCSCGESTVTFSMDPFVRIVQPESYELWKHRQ
# RECQ1 inh: RECQ1 (human) helicase inhibition | RECQ1 DNA unwinding, red fluorescence kinetic read | Potency, µM (top dose mostly 57.3 µM), inactives show at the top dose activity, negative = inhibition, actives largely listed as inhibitors | 240,000 tested, 0.54% active | AID 2549;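 note: plate controls were vehicle for no effect and no enzyme for full effect; nearly all actives have a fitted effect of over 30% in size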
#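 50 nM RECQ1T1 preincubated 15 min with compound in Tris pH 8.0 buffer with MgCl2, DTT, Tween-20 and 2.5 ug/ml poly(dI-dC); started with 200 nM TAMRA/BHQ-2 forked duplex and 2 mM ATP. Unwinding read as fluorescence (525/598 nm), two reads 2 h apart.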
# SMN2 splice up: enhancers of SMN2 splice variant expression; 210,000 tested, 2.8% active; Potency, µM (top dose mostly 46.1 µM), inactives show at the highest dose activity change, positive = activation, usual class: activators; HEK293 SMN2-luciferase splicing reporter, luminescence, 30-36 h; note: % of control where 0% means no effect; nearly all actives have a fitted effect of over 55% in size
#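 HEK293 cells carry an SMN2 minigene-luciferase reporter in which exon 7 inclusion puts luciferase in frame. Cells were seeded at 2000 cells/well, attached for 10-12 hours, then exposed to compounds for 30-36 hours at 37C before ONE-Glo luminescence.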
# Luc counter: counter-screen: inhibitors of Kinase-Glo firefly luciferase; Q27757; Kinase-Glo luciferase, ATP luminescence, 8 min; Potency, µM (titrated, usually from 38.3 µM), inactives show top-dose activity change, negative = inhibition, actives largely listed as inhibitors; 200,000 tested, 0.28% active; AID 1379; note: % is set by controls: 0 for no effect and ±100 for the full control effect; nearly all actives have a fitted effect of over 60% in size
#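 Inhibition of Kinase-Glo luciferase light generation was assessed at 10 uM ATP in pH 7.2 imidazole buffer, with luminescence measured after eight minutes at ambient temperature.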
# * = called active by the depositor; i = inactive; ? = inconclusive; / = no result given; [ ] = dose if it differs, or a comment. Unless noted, calls come from the whole dose curve; as a rule, active = well fitted curve in the direction sought with a large enough effect; inconclusive = small, poorly fitted or top-dose-only effect, or another doubt; inactive = no such curve, though single readings can be large; an effect the other way counts as inactive or inconclusive. Potency is the fitted concentration of half-maximal effect.
# Values in the order – IMPase Li cell | JMJD2E inh | Luc counter | SMN2 splice up | Epigenetic derep | RECQ1 inh | GoLoco inh red
Cc1nc(/N=C(\N)NC(=O)NC2CCCCC2)nc2ccccc12
 : / | 3% | / | / | 0.8% | ? | 6%
COCCCNc1oc(COc2ccc(Cl)cc2Cl)nc1C#N
 : 4%[38.3 µM] | ? | 0% | 7% | 0.0% | -5% | 20%
COc1c(F)c(F)c(C(=O)Nc2ccccc2N2CCN(C(=O)C(C)C)CC2)c(F)c1F
 : 19%[38.3 µM] | -3% | 3% | 3% | -3.5% | -1% | 82%[activator]
Cc1cccc(-n2ncc3c(NCc4ccccc4)ncnc32)c1
 : 26%[38.3 µM] | ? | -3% | 10µM* | -0.8% | -6% | -2%
COc1ccc(NC(=O)NC23CC4(C)CC(C)(CC(C)(C4)C2)C3)cc1OC
 : 7% | -4% | -1% | 6% | -1.1% | -10% | 2%
COc1ccc(C2c3c(oc4ccccc4c3=O)C(=O)N2CC2CCCO2)cc1 (stereo not given)
 : 6%[38.3 µM] | 2% | -3% | 16% | -3.2% | -1% | -18%
CCCCOc1ccc(C(O)C(CN2CCCCC2)c2ccccc2)cc1 (stereo not given)
 : 13% | 2% | 9% | -26% | 0.4% | -4% | 7%
Cc1sc2nc(CN3CCCCC3)nc(N3CCN(C(=O)c4ccco4)CC3)c2c1C
 : 32%[activator] | -29% | 1% | -13% | -2.2% | -9% | 6%
c1cnc2ccc(C(c3nnnn3C3CCCC3)N3CCN4CCCC4C3)cc2c1 (stereo not given)
 : -11%[38.3 µM] | 0% | -5% | -6% | 1.1% | -7% | 10%
O=c1[nH]c2ccc(Cl)cc2c(-c2ccccc2)c1N1CCN(c2ccccn2)CC1
 : 11%[38.3 µM] | -1% | -2% | 4% | 0.7% | -4% | 1%
COc1ccccc1N1CC(O)=C(c2nc3ccccc3c(=O)[nH]2)C1=N
 : 16%[38.3 µM] | ? | -3% | 25% | -1.6% | 8% | 13%
N#Cc1ccc(CSc2nnc(COc3ccccc3)n2-c2ccccc2)cc1
 : 55%[activator][38.3 µM] | -4% | -1% | -21% | 1.5% | -9% | 9%
Cc1nn2c(N3CCN(C(=O)c4ccco4)CC3)cc(C(C)(C)C)nc2c1-c1ccc(Cl)cc1
 : -13%[38.3 µM] | 15% | -2% | -24% | -1.8% | -4% | 2%
O=C(NC1CCCCC1)N1CCN(C(c2ccccc2)c2ccccc2)CC1
 : 3%[38.3 µM] | 5% | 0% | -7% | 0.1% | i | -21%
Cn1c(=O)c([N+](=O)[O-])c(-n2cnc3ccccc32)c2ccccc21
 : / | ? | / | / | ? | -1% | -1%
Cc1ccc(CN2CCSc3ccc(C(=O)NC4CCN(Cc5ccccc5)CC4)cc32)cc1
 : 3% | ? | -1% | -41%[inhibitor] | 2.7% | -13% | -15%
Cc1ccc(S(=O)(=O)N(Cc2ccc(Cl)cc2)c2ccccc2C(=O)NCc2ccco2)cc1
 : / | -8% | / | / | 0.0% | -17% | /
S=C(NC1CCCCC1)N1CCOCCOCCN(C(=S)NC2CCCCC2)CCOCC1
 : / | -9% | / | / | -2.9% | -9% | -9%
O=C(NC1CCCCC1)C(c1cccs1)N(C(=O)c1ccccn1)c1ccccc1 (stereo not given)
 : -3% | -13% | -2% | 1% | 0.0% | -8% | -5%
CCOC(=O)Cn1c(=NC(=O)c2nc3ccccc3s2)sc2cc(S(N)(=O)=O)ccc21
 : 10µM* | ? | -3% | -12% | ? | -6% | 23%

# Reprinted from the part before: 4 entries, then new ones.
# Values in the order – IMPase Li cell | JMJD2E inh | Luc counter | SMN2 splice up | Epigenetic derep | RECQ1 inh | GoLoco inh red
Cc1ccc(S(=O)(=O)N(Cc2ccc(Cl)cc2)c2ccccc2C(=O)NCc2ccco2)cc1
 : / | -8% | / | / | 0.0% | -17% | /
S=C(NC1CCCCC1)N1CCOCCOCCN(C(=S)NC2CCCCC2)CCOCC1
 : / | -9% | / | / | -2.9% | -9% | -9%
O=C(NC1CCCCC1)C(c1cccs1)N(C(=O)c1ccccn1)c1ccccc1 (stereo not given)
 : -3% | -13% | -2% | 1% | 0.0% | -8% | -5%
CCOC(=O)Cn1c(=NC(=O)c2nc3ccccc3s2)sc2cc(S(N)(=O)=O)ccc21
 : 10µM* | ? | -3% | -12% | ? | -6% | 23%
COc1ccc(CCN(C(=O)C(F)(F)F)C(C(=O)NC2CCCCC2)c2ccc(C)s2)cc1OC (stereo not given)
 : 56%[activator][38.3 µM] | -1% | 3% | 11% | 0.6% | -1% | -2%
CC1CCN(C(=S)c2ccccc2O)CC1
 : 38%[38.3 µM] | -3% | -1% | ? | 1.1% | 2% | -47%
CC(C)OC(=O)CSc1nc2cc3c(cc2cc1C#N)OCO3
 : ? | -6% | 0% | ? | 14% | -3% | 13%
O=[N+]([O-])c1ccc(-c2cnc(SC(c3ccccc3)c3ccccc3)[nH]2)cc1
 : 40%[activator] | -4% | 2% | -84%[inhibitor] | 2.1% | -16% | 0%
COc1ccc(-c2ccc(C(C)=O)cc2)cc1[C@H]1[C@@H]2C=CCC[C@@]2(C)C(=O)N1Cc1ccccc1
 : / | ? | / | / | -1.1% | i | -12%
CCCOC(=O)c1ccc(-c2c(C)noc2-c2ccc(OC)cc2O)o1
 : 23%[38.3 µM] | ? | 0% | 3% | -1.1% | i | 4%
Cc1ccc(C)c(N2CCN(C(=O)c3ccc(NS(=O)(=O)c4c(C)noc4C)cc3)CC2)c1
 : 11%[38.3 µM] | 2% | -3% | -22% | 0.0% | -7% | 3%
CN1CCN(c2nc(C(N)=O)cc(-c3ccccc3)n2)CC1
 : 3% | 93%[activator] | 0% | 4% | 0.0% | 7% | 1%
CCc1nc(NCCCCCO)c2nnn(Cc3ccccc3F)c2n1
 : 22%[38.3 µM] | -3% | -4% | 4% | -3.3% | -3% | -11%
Cc1nnc(SCC(=O)N2CCC(c3noc4ccc(F)cc34)CC2)s1
 : 17%[38.3 µM] | -9% | 0% | 17% | -0.2% | -14% | 0%
Cc1c(N=C2NC(=O)C(CC(=O)Nc3ccccc3)S2)c(=O)n(-c2ccccc2)n1C (stereo not given)
 : 21%[38.3 µM] | -6% | 2% | 29% | -2.1% | i | 33%[activator]
Cc1ccc(C)c(Cc2c(C)nc3c(C(=O)NCc4ccc5c(c4)OCO5)cnn3c2C)c1
 : 42%[activator][38.3 µM] | ? | 1% | -17% | -0.2% | -7% | 13%
COc1cc2c(cc1NC(=O)C(C)NCc1ccccc1)oc1ccccc12 (stereo not given)
 : 11% | 6% | 1% | -19% | 1.1% | -5% | 7%
CCc1nc(NCCc2ccccn2)c2nnn(Cc3ccccc3F)c2n1
 : 4%[38.3 µM] | -1% | -6% | -19% | -1.1% | -1% | -8%
CCSc1nc(N2CCOCC2)c2c(c1C#N)CCCC2
 : / | ? | / | / | -5.5% | -22% | /
Cc1cc(O)c(C(C)C)cc1C1(c2cc(C(C)C)c(O)cc2C)OC(=O)c2ccccc21
 : -19% | -26% | -2%[7.66 µM] | -19%[9.22 µM] | 4.1% | -24% | -6%[14.2 µM]
CC1(C)Cc2nc3sc4c(=O)n(CC(=O)NCc5ccccc5)cnc4c3cc2CO1
 : ? | ? | 0% | 16% | 2.3% | i | -12%
CCc1ccc2oc(-c3cccc(NC(=O)c4cccnc4)c3)nc2c1
 : 25%[38.3 µM] | 0% | 5% | 16% | -1.7% | -5% | 10%
O=C(c1ccc(F)cc1)c1ccc(N2CCCC2)cc1
 : 29%[38.3 µM] | ? | -6% | / | 0.0% | -15% | 4%
CC1(C)Cc2c(C#N)c(SCC(=O)c3ccccc3)nc(N3CCOCC3)c2CO1
 : ? | ? | -2% | -1% | 1.0% | 3% | -23%
COC(=O)Cn1c(=NC(=O)c2nc3ccccc3s2)sc2cc(S(C)(=O)=O)ccc21
 : 6.3µM* | ? | -3% | 9% | ? | 5% | 21%
CC(C)C(c1nnnn1C1CCCCC1)N1CCc2ccccc21 (stereo not given)
 : 33%[38.3 µM] | 3% | -3% | 5% | 0.0% | 11% | 3%
COc1ccccc1C(=O)NC(=Nc1nc2ccccc2o1)NC(=O)c1ccccc1OC
 : 45%[activator][38.3 µM] | -25% | 2% | -67%[inhibitor] | 3.3% | -16% | 22%
CSc1nc(N2CCCC2)c2c(c1C#N)CC(C)(C)OC2
 : ? | -1% | -4% | -7% | -0.7% | 7% | -32%
CCOc1ccc(-c2c(C#N)c(N)nc3sc(C(=O)c4ccccc4)c(N)c23)cc1
 : / | -11% | / | / | 8.6% | 131%[activator] | 10%
Cc1ccnc(N2CCC(C(=O)Nc3ccc(Oc4ccccc4)cc3)CC2)n1
 : ? | 1% | 7% | -3% | -0.1% | -16% | 4%
CCOC(=O)c1cnc(-n2nc(C)cc2C)nc1NCc1ccccc1
 : 25%[38.3 µM] | 9% | -1% | -76%[inhibitor] | 1.8% | -2% | 9%
O=C(CSc1nnc(Cc2ccccc2)n1Cc1ccco1)NC12CC3CC(CC(C3)C1)C2
 : 36%[activator][38.3 µM] | -6% | 2% | -65%[inhibitor] | 1.1% | -3% | -3%
O=C1CC(NCc2ccco2)C(=O)N1CCc1ccccc1 (stereo not given)
 : 3%[38.3 µM] | -3% | 1% | -1% | 0.1% | i | 0%
CCc1nnc(NS(=O)(=O)c2ccc(NC(=S)NC(=O)/C=C/c3ccccc3)cc2)s1
 : -2% | 9% | 7% | -2% | 0.0% | ? | -2%
O=C(CSc1nc(C2CC2)nc2ccccc12)Nc1ccccc1N1CCOCC1
 : 21% | 6% | 5% | -31%[inhibitor] | -4.7% | i | 7%
O=C(/C=C/c1ccccc1)NC(NC(=S)Nc1cccc(Cl)c1)C(Cl)(Cl)Cl (stereo not given)
 : / | -2% | / | / | -1.0% | -5% | /
Cc1cccc(NC(=S)N(CCCN2CCCC2)Cc2cccn2Cc2ccc(Cl)cc2)c1
 : 9% | -5% | 8% | / | -4.3% | -10% | 10%
CC1CCN(c2ccc(C(F)(F)F)cc2N)CC1
 : -26% | -3% | 0% | -5% | -1.3% | 4% | -1%
CCOC(=O)c1cc2c(ccn2C)n1Cc1ccc(Cl)cc1
 : 19% | ? | 1% | -11% | -1.7% | 16% | 13%
Cc1cccc(C(=O)Nc2ccc(O)cc2)c1
 : -8%[38.3 µM] | -4% | -12% | 27% | 1.8% | i | -2%
COC(=O)/C(C#N)=C/c1c(N2CCN(Cc3ccc4c(c3)OCO4)CC2)nc2c(C)cccn2c1=O
 : / | -7% | / | / | 0.1% | -30% | 10%
N#Cc1nc(COc2ccc(Br)cc2)oc1N1CCN(Cc2ccccc2)CC1
 : 17%[38.3 µM] | 2% | -7% | -10% | 0.0% | -2% | 11%
COc1cccc(C2NC(=O)NC(C)=C2C(=O)Nc2cccc(C)c2C)c1 (stereo not given)
 : -4%[38.3 µM] | -2% | -1% | 7% | 0.8% | i | -18%

# Screening data as filed in PubChem.

# This is a subset (hit frequency here may not be typical).
